# HNF4A DNA FP – change in binding of human HNF4A to DNA, primary screen, biochemical, fluorescence polarization, FITC-DNA. Hepatocyte nuclear factor 4-alpha (Homo sapiens), P41235. 1 h. activity change, % at 10 µM. 0.3% of 360,000 active; in the data active means activity change above about 30%, passing the limit was not always enough;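 further: controls were the assay level and a saturating level of protein; the project sought stronger binding though the title names inhibitors; some compounds called inactive have numbers as strong as hits; positive values seem to mean higher polarization but the record does not say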
# Bfl-1 A1 inh – caspase 3/7 activation in MEF A1-2A-BIM cells, primary screen, A1 inhibitor project, cell-based, luminescence, HTS. caspase activation, % (test concentration not listed). 0.066% of 330,000 active. Caspase-Glo 3/7 luminescence, 3 h; percent of clofoctol response, vehicle zero. AID 2462, 2010;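 active means over half of replicate activation scores above 10%, or exactly half above 10 with the replicate mean above 10; inconclusive means replicate mean below 10 yet half the replicates above 10; inactive means over half of replicates below 10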;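 further: wells of about 30 µL received 50 nL stock; many hits fall short of the cut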
# LANA-H2B inh – blockers of LANA interaction with H2A/H2B – biochemical, FP readout, HTS, primary screen | Protein LANA1 (Human herpesvirus 8 type P (isolate GK18)), Q9QR71 | cell-free LANA-H2A/H2B peptide, fluorescence polarization | inhibition, % (no concentration beside the values) | 0.6% of 320,000 active | AID 2629, 2010; in the data active means inhibition mostly above about 10%, no sharp cut-off; inactive means mostly below about 6.7%;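 further: stock transfer was 7.5 nL into about 10 µL; 0% = median of vehicle wells and 100% = median of positive control wells; one replicate is shown; the record names a cut of 25% in any replicate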
# Beta2AR agonist – beta2AR agonists driving receptor internalization, primary screen, cell-based, FAP fluorogen, flow cytometry. 0.43% of 340,000 active. response, % (no concentration beside the values). Beta-2 adrenergic receptor (Homo sapiens), P07550. Am2.2-beta2AR cells; reference of the scale not given here;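 active means response above a set limit, near 3 SD of response in nonfluorescent compounds, cut at about 42% in these data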;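 further: stock transfer was 100 nL into about 11 µL; a reference agonist was the positive control; negative values mostly stem from fluorescent compounds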
# Target sequence (P07550 whole entry, looked up): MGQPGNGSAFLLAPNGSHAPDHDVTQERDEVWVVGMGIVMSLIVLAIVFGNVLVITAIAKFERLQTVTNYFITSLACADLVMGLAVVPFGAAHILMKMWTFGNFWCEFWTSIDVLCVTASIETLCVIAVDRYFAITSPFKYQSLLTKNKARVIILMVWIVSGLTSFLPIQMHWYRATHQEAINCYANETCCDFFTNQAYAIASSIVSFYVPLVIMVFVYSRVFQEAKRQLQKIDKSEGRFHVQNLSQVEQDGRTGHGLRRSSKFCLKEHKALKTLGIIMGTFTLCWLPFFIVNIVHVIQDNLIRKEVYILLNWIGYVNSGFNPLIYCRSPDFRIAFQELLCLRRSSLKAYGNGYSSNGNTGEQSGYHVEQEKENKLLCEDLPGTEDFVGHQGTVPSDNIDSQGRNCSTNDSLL
# Ecoli growth – E. coli growth inhibition, primary screen, OD600; Escherichia coli growth, 23 h; active compounds read low; OD600 absorbance (no concentration beside the values); 0.21% of 330,000 active; AID 1053175, 2014;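 active means OD600 absorbance below the run mean of sample wells minus 3.6 SD, in any replicate, cut at about 0.56 in these data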;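 further: stock transfer was 300 nL into about 60 µL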
# Vif A3G – inhibitors of Vif binding to APOBEC3G peptide, primary screen, biochemical, TR-FRET, GST-Vif 1-94, biotin-A3G peptide, dose response retest (AID 1117319). Virion infectivity factor (Human immunodeficiency virus type 1 group M subtype B (isolate …. 0.57% of 260,000 active. TR-FRET GST-Vif / biotin-A3G peptide binding; higher % means a stronger effect; test concentration not given here; strong numbers were not always called active. one-dose inhibition, %; IC50 in µM for titrated hits;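 active means above the screen mean plus three standard deviations and confirmed in dose response; inconclusive means results disagree or hit not tested in dose response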;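 further: Vif residues 1-94 fused to GST binding biotinylated APOBEC3G peptide 110-148; 0% = full assay without inhibitor and 100% = GST in place of GST-Vif; retest series ran down from 100 µM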
# UCH37 inh – inhibitors of human UCH37 deubiquitinase, primary screen, biochemical, Ub-AMC cleavage, fluorescence. 0.33% of 330,000 active. purified proteasome/UCH37. Ubiquitin carboxyl-terminal hydrolase isozyme L5 (Homo sapiens), Q9Y5K5. AID 588478, 2011. inhibition, % (concentration not given with the values);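 active means mean of two replicates above 20%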;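 further: 0% = compound-free wells with enzyme and 100% = wells lacking proteasome; stock transfer was 100 nL into about 20 µL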
# Target sequence (Q9Y5K5 whole entry, looked up): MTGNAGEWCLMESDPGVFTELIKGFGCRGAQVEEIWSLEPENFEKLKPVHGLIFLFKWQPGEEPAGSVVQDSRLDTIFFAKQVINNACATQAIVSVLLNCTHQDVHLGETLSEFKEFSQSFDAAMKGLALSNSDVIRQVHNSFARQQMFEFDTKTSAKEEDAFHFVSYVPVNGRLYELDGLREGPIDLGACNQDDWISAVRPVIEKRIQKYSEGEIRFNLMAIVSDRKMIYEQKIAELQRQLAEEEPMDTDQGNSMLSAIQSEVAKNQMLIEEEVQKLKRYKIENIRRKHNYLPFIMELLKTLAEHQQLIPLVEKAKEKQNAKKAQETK
#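 Test system – human UCH37 enzyme supplied as purified proteasome complex · Incubation – 30 min preincubation with enzyme, 25 min cleavage at room temperature · Detection – AMC fluorescence from Ub-AMC cleavage, excitation 355 nm, emission 460 nm · Benchmarks – no-proteasome wells (full inhibition) and compound-free wells (no inhibition)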
# Numbers without * were called inactive; ? = inconclusive; . = not tested or not shown; & = joins results of further samples.
SMILES	HNF4A DNA FP	Bfl-1 A1 inh	LANA-H2B inh	Beta2AR agonist	Ecoli growth	Vif A3G	UCH37 inh
O=C(CSc1ncccc1-c1nc2ccccc2[nH]1)N1CCc2ccccc21	1.6	-4.6	3.8	0	0.7	.	-12
CN(CC(=O)NCCCN1CCOCC1)S(=O)(=O)c1cc(Cl)ccc1Cl	-2.3	0.1	-2.0	-14	0.68	.	0.9
CNc1oc(-c2ccc(Cl)cc2)nc1C#N	-0.2	0.0	-1.5	-4	0.64	1%	-383
CCOc1ccc(N(CC(=O)NCc2ccccc2)S(=O)(=O)c2ccc(C)cc2)cc1	-0.8	0.9	8.5	-7	0.66	.	4.8
O=C(NCc1ccccn1)c1cc(-c2ccccc2Cl)on1	-0.2	-0.4	-9.0	-1	0.72	0%	4.8
CC(C)OCC1CC(CC(=O)NC(=S)Nc2cccc([N+](=O)[O-])c2)C(=O)O1 (stereo unspecified)	1.3	-0.5	0.5	-5	0.65	20%	3.4
Nc1nnc(SCC(=O)Nc2ccc(F)c(Cl)c2)n1-c1ccccc1	0.4	-0.4	0.9	-5	0.68	-10%	1.3
Cc1nc2cc(C(F)(F)F)ccc2n1CCNc1nc(-c2ccc([N+](=O)[O-])c(Cl)c2)cs1	-3.1	-0.5	-1.8	0	0.72	.	0.8
COc1ccc(CC(=O)OCC(=O)Nc2ccc(OC(F)F)cc2)cc1OC	-1.1	-1.3	-1.2	6	0.68	-5%	-0.9
O=C1NCCN1CCNS(=O)(=O)c1ccc2ccccc2c1	-0.2	0.6	4.3	6	0.7	?	1.4
Cn1c(C(=O)NCCc2ccsc2)cc2c(=O)n(C)c3ccccc3c21	2.9	-0.6	1.6	2	0.73	-12%	-0.6
Cc1cc(-c2nn(-c3ccccc3F)cc2CN2CCN(c3ccncc3)CC2)c(C)s1	1.5	0.7	-6.1	20	0.68	-14%	1.7
COc1cc(/C=N\NC(=O)CNC(=O)C(c2ccccc2)c2ccccc2)ccc1O	2.7	0.8	-2.8	2	.	1%	.
Cc1ccc(S(=O)(=O)NCC(=O)OCc2ccccc2Br)cc1	-1.4	-1.2	3.7	5	0.65	-2%	2.0
COc1cccc(/C=C/C(=O)OCC(=O)c2cc(C)n(CC3CCCO3)c2C)c1OC (stereo unspecified)	2.8	-0.4	-2.4	6	0.71	11%	-1.3
CCCn1c(=O)c(C(=O)NCc2ccccc2OC)c(O)c2ccccc21	-0.5	1.7	6.5	5	0.7	.	4.4
O=C(Oc1cc(=O)oc2ccccc12)c1ccccc1	3.8	0.2	-1.3	1	0.73	.	1.0
CCn1c(NC(=O)c2ccc(C)cc2)c2ccccc2nc1=O	1.1	-0.3	-0.4	-7	0.72	-4%	-6.9
CO/N=C/NC(=O)NOCc1ccc(Cl)cc1Cl	-1.2	0.0	-6.3	4	.	23%	-2.1
CC(C)(C)NC(=O)COc1ccc(CNCc2cccnc2)cc1	2.6	0.3	-0.9	6	.	-7%	.
Cc1nc2cc(Cl)c(Cl)cc2n1CCCO	-1.4	-0.4	-3.8	-10	0.69	-4%	7.8
Cc1ccc(OCCn2cc(C(=O)O)c3ccccc32)cc1	-5.1	0.0	0.5	3	0.68	0%	1.0
O=C(CCc1nc(-c2cccs2)no1)NCc1ccc(F)cc1Cl	-0.9	0.4	-2.1	-11	0.7	-2%	1.1
O=C(Cc1cccs1)N=Nc1c(O)[nH]c2ccc(Br)cc12	-2.7	1.5	3.3	-20	0.63	6%	3.0
CCOC(=O)/C(C#N)=C/NC(=O)NC(C)(C)C	2.8	-0.7	-1.5	-4	0.71	-1%	-0.2
O=C(NC(=S)N1CCN(C/C=C/c2ccccc2)CC1)c1ccc(Cl)nc1	5.5	0.4	3.3	3	0.66	8%	5.0
CCCNC(=S)Nc1cccc(C(F)(F)F)c1	2.4	0.2	-1.5	22	0.61	.	4.8
O=C(CSc1nnc(-c2ccc(Cl)cc2)n1Cc1ccco1)c1cccs1	-2.0	0.3	-1.3	4	0.72	4%	4.6
O=C(Nc1ccccc1C(=O)NCc1ccccc1)c1ccccc1	0.6	-0.5	-5.2	-2	0.68	-4%	2.3
Cc1cccc(CCNC(=O)C2CCN(S(=O)(=O)c3c(C)noc3C)CC2)c1	-0.7	-0.1	0.3	7	0.67	-3%	-0.9
COc1ccc(C(CNC(=O)c2ccc(N3CCCC3=O)cc2)N(C)C)cc1 (stereo unspecified)	0.3	0.7	3.8	-1	0.7	-3%	1.5
Cc1ccc(NC(=O)C2SC(=Nc3ccccc3)C(C(=O)Nc3ccc(Cl)cc3)=C2N)cc1 (stereo unspecified)	1.8	.	.	6	0.7	0%	-0.2
O=c1[nH]c2ccccc2[nH]c1=O	-3.6	0.6	-1.3	4	0.73	2%	-8.1
CCn1cc(/C=C(\NC(=O)c2ccc(C)cc2)C(=O)NCCCN2CCOCC2)c2ccccc21	-1.1	.	.	-2	0.69	.	15
CCOc1ncccc1C(=O)OCC(=O)Nc1ccc(C)c(S(=O)(=O)N(C)C)c1	-0.5	0.5	2.7	-9	0.64	-2%	-0.6
O=C(O)CC(C(=O)Nc1ccc(Cl)c(Cl)c1)C1CCCO1 (stereo unspecified)	-1.7	1.5	3.6	-4	0.7	1%	2.1
CCOC(=O)c1cc2ccccc2nc1C	0.1	0.1	-5.4	-4	0.72	?	2.9
CCSC1=C(C#N)C(c2ccccc2Cl)C(C(=O)c2cccs2)C(O)(C(F)(F)F)N1 (stereo unspecified)	-0.4	0.0	1.0	2	0.73	?	2.7
CC(C)CC1Nc2ncnc(N3CCOCC3)c2N(Cc2ccccc2)C1=O (stereo unspecified)	2.7&2.6	1.5	3.7	3	0.71	.	0.2
COc1cc(CCC(=O)Nc2ccncc2Cl)cc(OC)c1OC	4.9	2.6	-1.5	-1	0.71	.	2.3
Cc1ccc2nc(NC(=O)[C@H](C)N3C(=O)C4CC=CCC4C3=O)sc2c1 (stereo partly specified)	2.1	-0.5	-7.6	-1	0.68	.	4.2
Cc1cc(C)nc(NS(=O)(=O)c2ccc(NS(=O)(=O)c3ccsc3)cc2)n1	-0.9	0.9	4.6	1	0.63	8%	-3.0
CC1Oc2ccccc2N(CC(=O)N2CCCCCC2)C1=O (stereo unspecified)	-3.4	-0.3	-0.7	3	0.67	.	0.0
C[C@H](NS(=O)(=O)c1ccc(Cl)cc1)C(=O)OCC(=O)NCCc1ccc(S(N)(=O)=O)cc1	0.0	.	.	0	0.7	.	0.2
N#C/C(=C/c1cccc([N+](=O)[O-])c1)C(=O)Nc1ccccc1O	-1.7	0.2	2.0	57*	0.66	17%	3.3
CCn1c(C)c(C)c2cc(C(=O)NCCCN3CCCCCC3)ccc21	13	0.3	-0.6	20	0.67	.	0.1
Cc1cc(NC(=O)Cn2cc([N+](=O)[O-])cn2)n(Cc2ccc(F)cc2)n1	-1.8	1.1	-2.1	-6	0.72	.	1.3
Cn1c(=O)c2c(ncn2CC(=O)NC[C@H]2O[C@@H](n3cnc4c(N)ncnc43)[C@H](O)[C@@H]2O)n(C)c1=O	0.9	.	.	2	0.72	-2%	5.3
Cc1cccc(C(=O)NNC(=O)c2ccco2)c1	-0.1	-1.0	3.9	-2	0.66	-10%	1.0
COc1ccc(-c2cc(-c3ccccc3)nc(N)n2)c(O)c1	8.1	.	.	-1	.	-29%	.
COc1ccc(/C=N/N(c2ccccc2)c2ccccc2)cc1O	2.9	1.3	1.5	-3	.	.	.
COCCCNC(=S)Nc1ccccc1C	-0.1	-0.6	-2.6	10	0.71	3%	5.5
O=C1C2C3C=CC(C3=C3CCCCC3)C2C(=O)N1c1ccccc1 (stereo unspecified)	2.4	0.0	-0.5	7	0.65	1%	-2.1
CC(C)(C)N(CC#CCC(O)(c1ccccc1)c1ccccc1)CCO	-3.5	0.0	-2.9	-2	0.65	0%	0.4
Cn1cc([N+](=O)[O-])c(C(=O)Nc2ccn(C34CC5CC(CC(C5)C3)C4)n2)n1	1.0	-0.5	-4.7	-6	0.65	13%	0.4
COc1ccc(NC2CCCN(C(=O)c3cccnc3)C2)cc1 (stereo unspecified)	5.5	0.7	-2.6	6	0.66	.	1.0
COC(=O)c1c(-c2ccc(C(C)(C)C)cc2)csc1NC(=O)C1C2CCC(O2)C1C(=O)O (stereo unspecified)	0.2	1.8	6.1	1	0.7	-11%	-0.5
Cc1nnsc1C(=O)NNS(=O)(=O)c1cc(C(F)(F)F)cc(C(F)(F)F)c1	-0.6	0.1	-4.6	0	0.64	5%	3.1
Cc1ccnc(NC(=O)c2ccc(COc3ccc(Cl)cc3)o2)c1	5.0	-0.6	-0.9	19	0.74	10%	1.0
Cc1cc(Br)ccc1NC(=O)CN(C)C(=O)c1cc(S(=O)(=O)N(C)C)ccc1N1CCCC1	-0.1	0.3	0.0	1	0.67	.	0.3

# A second format for 2 compounds above:
# Every second line gives: HNF4A DNA FP | Bfl-1 A1 inh | LANA-H2B inh | Beta2AR agonist | Ecoli growth | Vif A3G | UCH37 inh
CC1Oc2ccccc2N(CC(=O)N2CCCCCC2)C1=O (stereo unspecified)
→ -3.4 | -0.3 | -0.7 | 3 | 0.67 | . | 0.0
C[C@H](NS(=O)(=O)c1ccc(Cl)cc1)C(=O)OCC(=O)NCCc1ccc(S(N)(=O)=O)cc1
→ 0.0 | . | . | 0 | 0.7 | . | 0.2

# Other results
SMILES	HNF4A DNA FP	Bfl-1 A1 inh	LANA-H2B inh	Beta2AR agonist	Ecoli growth	Vif A3G	UCH37 inh
O=C(N/N=C1\CCCc2ccccc21)C(O)c1ccccc1 (stereo unspecified)	-1.4	0.5	-0.3	7	.	4%	.
CCOc1ccccc1NC(=O)N1CCCC1C(=O)NCc1cccs1 (stereo unspecified)	0.4	-0.2	2.2	0	0.68	.	-1.2
Nc1nc(-c2ccco2)nn1C(=O)CCc1ccccc1	-1.3	1.4	1.8	-5	0.7	17%	4.7
CC1CCCC(C)N1C(=O)COc1ccc(C(=O)N/N=C/c2ccc(C(=O)O)cc2)cc1 (stereo unspecified)	-8.6	0.6	-1.7	5	.	-4%	.
CCCC(C(=O)N(C)CC(=O)Nc1ccc(N2CCOCC2)cc1)c1ccccc1 (stereo unspecified)	-1.5	-1.1	-6.7	0	0.65	3%	5.0
CC(C)NC(=O)c1ccc(S(=O)(=O)N(C)C)cc1	-8.9	-0.5	1.1	1	0.68	-1%	1.3
O=C(O)CCC(=O)OCCN(Cc1ccc(Oc2ccc([N+](=O)[O-])cc2)cc1)C(=O)C(Cl)Cl	-2.6	.	.	3	.	2%	.
O=C(CCN1CCOCC1)Nc1ccc2c(c1)N(C(=O)CN1CCOCC1)c1ccccc1CC2	-0.8	0.3	-2.6	-13	0.69	1%	2.8
Cc1nc2c(c(N3CCOCC3)n1)OCC(=O)N2	-1.3	-0.3	-3.8	6	0.69	0%	-0.1
CSc1nc(N2CCOCC2)c2c3c(sc2n1)CCCC3	0.1	3.0	-7.1	-8	0.76	3%	0.4
COc1ccc(CN2C3CCCC2CC(NC(=O)Nc2ccccc2C)C3)cc1 (stereo unspecified)	-0.9	-0.1	1.3	-7	0.69	-4%	1.5

# Not a hit list; about 2.1% have a hit in one of these screens.
